Screening results: PubChem, Broad Institute
Ecoli rRNA inh – reduced GFP signal of wild-type E. coli, primary screen, bacterial rRNA inhibitor project, GFP/RFP fluorescence, OD600, single point | E. coli WT GFP vs humanized-ribosome RFP mutants, 24 h; hits give low values; DMSO median 0, no signal -100 | GFP signal change (wild-type ribosome), % (concentration not given with the values) | actives 1.6% (n = 350,000) | AID 720706, 2013;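 active = significant combined selectivity score with lowered wild-type GFP, culture density cut under 30%, mutant RFP and density less affected; inactive = any of these conditions unmet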; also: one replicate is shown; some compounds called inactive have numbers as strong as hits
Ecoli rRNA inh OD600 – also measured in Ecoli rRNA inh; calls as there; OD600 change, %; measured here: OD600 growth;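 optical density of the mix in the first replicate; 0 = DMSO median and -100 = no signal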
Ecoli rRNA inh RFP – further read-out of Ecoli rRNA inh, marked with its call; RFP signal change, %; measured here: RFP humanized mutant strains;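 first replicate; 0 = DMSO median and -100 = no signal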
An asterisk follows results filed as active; & = joins results of further samples. An excerpt; rates above refer to the full screens.

Compound	Ecoli rRNA inh	Ecoli rRNA inh OD600	Ecoli rRNA inh RFP
CC(=O)N1[C@@H]2CN(C(=O)NC(C)C)C[C@H]1C2c1ccc(Br)cc1 (some centres undefined)	0&0	1&5	-1.5&-1.0
CNC[C@H]1OCCCC[C@@H](C)Oc2ccc(NC(=O)Cc3ccccc3)cc2C(=O)N([C@H](C)CO)C[C@@H]1C	7	6	1.8
CO[C@@H]1CN(C)C(=O)c2cc(NC(=O)Nc3ccccc3)ccc2OC[C@@H](C)N(C(=O)CC2CC2)C[C@H]1C	-3	-11	0.4
C[C@H](CO)N1C[C@H](C)[C@@H](CN(C)C(=O)C2CC2)Oc2cc(-c3cccnc3)ccc2S1(=O)=O	3	6	-1.0
C[C@@H]1CCn2cc(nn2)COC[C@H](Cc2ccccc2)NC1=O	1	2	-4.9
CCS(=O)(=O)N1CCC2(CC1)CN(C(=O)CN1CCOCC1)[C@H](CO)c1c2c2ccc(OC)cc2n1C	1	14	-4.2
CC(C)NC(=O)N(C)C[C@H]1Oc2ccc(NS(=O)(=O)c3cccs3)cc2C(=O)N([C@H](C)CO)C[C@H]1C	-4	-3	0.8
CCC(=O)Nc1ccc2c(c1)C(=O)N(C)C[C@@H](OC)[C@@H](C)CN(C(=O)CN1CCOCC1)[C@H](C)CO2	6	8	-0.4
Cc1ccc(-c2ccc([C@@H]3[C@H]4CN(C(=O)Nc5cccc(F)c5)CCCCN4[C@H]3CO)cc2)cc1	-9	-24	11
C/C=C/c1ccc([C@@H]2[C@H](CO)N(S(C)(=O)=O)[C@H]2CN(C)C(=O)CC)cc1	-1	-1	-1.3
CC(C)NC(=O)N1[C@H](CO)[C@@H](c2ccccc2)[C@@H]1CNC(=O)CN(C)C	4	5	-0.7
C[C@H]1CN([C@@H](C)CO)C(=O)c2ccccc2-c2ccccc2CO[C@@H]1CN(C)S(=O)(=O)c1cccc(F)c1	-6	-2	-5.8
C[C@H](CO)N1C[C@H](C)[C@H](CN(C)Cc2cncnc2)Oc2cc(C#CC3CC3)ccc2S1(=O)=O	-1	-5	0.4
CS(=O)(=O)N1CC(=O)N2[C@H](CO)[C@H](c3ccc(C#CC4CCCC4)cc3)[C@H]2C1	-2	0	1.6
CC(C)[C@@H]1C(=O)N[C@@H](c2ccccc2)CC=CC[C@@H](C)Oc2ccccc2C(=O)N1C (mixture of isomers)	-4	-31	-7.6
CC(C)NC(=O)Nc1ccc2c(c1)C(=O)N([C@@H](C)CO)C[C@@H](C)[C@H](CN(C)C(=O)c1ccccc1)OCCCC[C@H](C)O2	2	3	0.3

Record cards, as listed above. Screens in order: Ecoli rRNA inh	Ecoli rRNA inh OD600	Ecoli rRNA inh RFP
C[C@H]1CN([C@@H](C)CO)C(=O)c2ccccc2-c2ccccc2CO[C@@H]1CN(C)S(=O)(=O)c1cccc(F)c1 as listed: -6	-2	-5.8
CS(=O)(=O)N1CC(=O)N2[C@H](CO)[C@H](c3ccc(C#CC4CCCC4)cc3)[C@H]2C1 as listed: -2	0	1.6
CC(C)[C@@H]1C(=O)N[C@@H](c2ccccc2)CC=CC[C@@H](C)Oc2ccccc2C(=O)N1C (mixture of isomers) as listed: -4	-31	-7.6
C/C=C/c1ccc([C@@H]2[C@H](CO)N(S(C)(=O)=O)[C@H]2CN(C)C(=O)CC)cc1 as listed: -1	-1	-1.3
CC(C)NC(=O)N1[C@H](CO)[C@@H](c2ccccc2)[C@@H]1CNC(=O)CN(C)C as listed: 4	5	-0.7

(list continues)
Compound	Ecoli rRNA inh	Ecoli rRNA inh OD600	Ecoli rRNA inh RFP
C[C@@H]1CN([C@H](C)CO)C(=O)c2cc(NS(C)(=O)=O)ccc2O[C@@H]1CN(C)S(=O)(=O)c1ccccc1	0	-4	-0.6
COc1ccc2c3c(n(C)c2c1)[C@H](CO)N(Cc1ccc2c(c1)OCO2)CC31CCN(C(=O)C2CC2)CC1	-4	-8	-1.0
CC(=O)N(C)C[C@H]1Oc2cc(C#CC3CC3)ccc2S(=O)(=O)N([C@@H](C)CO)C[C@H]1C	3	1	-3.4
C[C@H]1CC=CC[C@@H](c2cccc(Cl)c2)NC(=O)[C@H](C)N(C)C(=O)c2ccccc2O1 (mixture of isomers)	-12	-53	13
COc1ccc(S(=O)(=O)N(C)C[C@@H]2Oc3c(NC(=O)Nc4c(C)noc4C)cccc3C(=O)N([C@@H](C)CO)C[C@@H]2C)cc1	0	8	0.3
O=C(C[C@H]1C[C@H]2c3cc(NC(=O)NC4CCCC4)ccc3O[C@H]2[C@@H](CO)O1)NCc1ccccc1F	6	7	-1.1
CCCNC(=O)N1[C@H](CO)[C@H](c2ccc(C3=CCCC3)cc2)[C@H]1CNC(=O)CC	-6	-6	-0.2
CN(C)CC(=O)N1CCCCN2[C@H](CO)[C@@H](c3ccc(-c4cncnc4)cc3)[C@H]2C1	10	21	-1.8
C[C@H](CO)N1C[C@H](C)[C@H](CN(C)C(=O)Nc2ccccc2)OCCCC[C@H](C)Oc2ccc(N(C)C)cc2C1=O	-5	-11	1.5
CO[C@H]1CN(C)C(=O)c2cc(NC(=O)c3ccccc3F)ccc2OC[C@@H](C)N(C(C)=O)C[C@H]1C	-2	2	-2.5
CO[C@@H]1CN(C)C(=O)c2cc(NC(=O)C3CC3)ccc2OC[C@H](C)N(C(=O)NC(C)C)C[C@H]1C	6	7	2.1
CO[C@@H]1CN(C)C(=O)c2cc(NC(=O)c3ccccc3)ccc2OC[C@H](C)N(CC2CC2)C[C@H]1C	0	-5	2.0
C[C@@H]1CN([C@H](C)CO)C(=O)c2cc(NC(=O)Nc3ccc(C(F)(F)F)cc3)ccc2O[C@@H](C)CCCCO[C@H]1CN(C)C	-43	-70	6.6
CCCN1C[C@@H](C)[C@@H](OC)CN(C)C(=O)c2cc(NC(=O)c3cccc(OC)c3)ccc2OC[C@@H]1C	-1	-3	0.6
O=C(c1ccc(F)cc1)N1CC[C@@H]2[C@H](CO)Nc3ccc(C#Cc4ccccc4F)cc3[C@@H]21	-5	11	1.3
CCCNC(=O)Nc1ccc2c(c1)C(=O)N(C)C[C@H](OC)[C@@H](C)CN(Cc1ccccc1)[C@@H](C)CO2	-4	-18	-4.8

Next part.
Values run as follows: Ecoli rRNA inh | Ecoli rRNA inh OD600 | Ecoli rRNA inh RFP
C[C@@H]1CN([C@H](C)CO)C(=O)c2c(c3ccccc3n2C)-c2ccccc2CO[C@H]1CN(C)C(=O)N[C@H](C)c1ccccc1
→ -1 | 1 | 1.3
C[C@H]1CN([C@@H](C)CO)C(=O)c2cc(Br)cnc2O[C@H]1CN(C)C(=O)c1ccc(F)cc1
→ 4 | 4 | -1.2
C[C@H]1CN(C)C(=O)c2cc(N(C)C)ccc2O[C@H]1CN(C)C(=O)OC(C)(C)C
→ -3 | -3 | 0.9
CCC(=O)N1C[C@H](C)[C@H](OC)CN(C)C(=O)c2cc(NC(=O)c3cc(C)on3)ccc2OC[C@@H]1C
→ -1 | 1 | -0.9
CO[C@H]1CN(C)C(=O)c2ccc(NC(C)=O)cc2OC[C@@H](C)N(Cc2ccncc2)C[C@H]1C
→ -3 | -1 | -2.6
Cc1ccccc1-c1ccc([C@H]2[C@@H](CO)N3CCCCN(S(=O)(=O)Cc4ccccc4)C[C@@H]23)cc1
→ 0 | -13 | -3.1
C[C@H]1CN(C)C(=O)Cc2cc([N+](=O)[O-])ccc2O[C@@H]1CN(C)C(=O)OC(C)(C)C
→ -1 | -2 | -1.2
CCCN1C[C@@H](C)[C@@H](OC)CN(C)C(=O)c2cc(NS(C)(=O)=O)ccc2OC[C@@H]1C
→ 1 | 3 | -0.1
C[C@@H]1CN([C@H](C)CO)C(=O)c2cc(NS(=O)(=O)c3cn(C)cn3)ccc2O[C@H]1CN(C)S(=O)(=O)c1cn(C)cn1
→ 6 | 9 | 0.0
CC(=O)NC[C@H]1[C@H](c2ccccc2)[C@@H](CO)N1C(=O)Cc1ccncc1
→ 4 | 13 | -2.5
O=C(NC[C@H]1[C@H](c2ccccc2)[C@@H](CO)N1C(=O)Cc1cccnc1)C1CCC1
→ 2 | -3 | -1.7
C/C=C/c1cnc2c(c1)C(=O)N([C@H](C)CO)C[C@H](C)[C@H](CN(C)C(=O)C1CC1)O2
→ 2 | 3 | -1.5
O=C(Cc1ccccc1)N1C[C@@H]2[C@H](c3ccccc31)[C@@H](CO)N2C(=O)C1CCCC1
→ -2 | -6 | 1.4
CO[C@H]1CN(C)C(=O)c2cc(NS(=O)(=O)c3ccc(Cl)cc3)ccc2OC[C@@H](C)N(C(=O)NC(C)C)C[C@H]1C
→ -1 | 4 | -0.3
COc1ccccc1-c1ccc2c(c1)O[C@@H](CN(C)CC1CC1)[C@H](C)CN([C@@H](C)CO)S2(=O)=O
→ 2 | -5 | -0.1
CC(C)C#Cc1ccc2c(c1)O[C@@H](CN(C)C(=O)C1CCC1)[C@H](C)CN([C@H](C)CO)S2(=O)=O
→ -6 | 10 | -1.4
CC(C)[C@@H](C)NC(=O)N(C)C[C@@H]1OCc2ccccc2-c2c(n(C)c3ccccc23)C(=O)N([C@H](C)CO)C[C@H]1C
→ 2 | -1 | -2.7
C[C@@H]1CN([C@H](C)CO)S(=O)(=O)c2ccc(C#CC(C)(C)O)cc2O[C@@H]1CN(C)C(=O)C1CC1
→ 1 | -1 | -1.6
CC(C)NC(=O)Nc1cccc2c1O[C@H](CN(C)C)[C@H](C)CN(C)C2=O
→ 1 | 2 | -1.8
COc1ccc(NC(=O)N(C)C[C@H]2OCc3ccccc3-c3ccccc3C(=O)N([C@H](C)CO)C[C@H]2C)c(OC)c1
→ 1 | -2 | -1.2
O=C(NCC1CCCCC1)[C@H]1[C@H](CO)[C@H]2Cn3c(ccc(C4=CCCC4)c3=O)[C@@H]1N2
→ -1 | -12 | 1.8
C[C@@H]1CN([C@H](C)CO)S(=O)(=O)c2ccc(C3=CCCCC3)cc2O[C@@H]1CN(C)CC1CC1
→ 5 | 11 | -0.3
CO[C@@H]1CN(C)C(=O)c2cc(NC(=O)C3CCOCC3)ccc2OC[C@H](C)N(C(C)=O)C[C@@H]1C
→ 1 | -2 | -1.8
CCCN(C)C[C@@H]1OCCCC[C@@H](C)Oc2ccc(NS(=O)(=O)c3ccc(Cl)cc3)cc2C(=O)N([C@H](C)CO)C[C@@H]1C
→ 0 | -14 | -1.9
C[C@@H]1CN([C@@H](C)CO)C(=O)Cc2cc(NC(=O)Nc3ccc(F)cc3)ccc2O[C@H]1CN(C)S(=O)(=O)c1cn(C)cn1
→ -1 | 2 | 2.4
C/C=C/c1ccc([C@H]2[C@@H](CO)N[C@@H]2CNC(=O)CC2CC2)cc1
→ 0 | 8 | 1.2
CCCN(C)C[C@H]1Oc2ncc(C#Cc3ccccc3OC)cc2C(=O)N([C@@H](C)CO)C[C@H]1C
→ -5 | -2 | 5.4
O=C(c1ccc2c(c1)OCO2)N1CC(=O)N2[C@@H](CO)[C@H](c3ccc(C#CC4CCCC4)cc3)[C@@H]2C1
→ 0 | -28 | 20
CNC[C@H]1Oc2ccc(N(C)C)cc2C(=O)N(C)C[C@@H]1C
→ 1 | -5 | 0.1
C[C@@H]1CN([C@H](C)CO)C(=O)c2cc(N(C)C)ccc2O[C@@H](C)CCCCO[C@H]1CN(C)Cc1ccc(C(=O)Nc2ccccc2N)cc1
→ 4 | 7 | 2.1
COc1ccc(S(=O)(=O)Nc2cccc3c2O[C@H](CN(C)C(=O)Nc2cccc4ccccc24)[C@H](C)CN([C@@H](C)CO)C3=O)cc1
→ -3 | -9 | 0.8
COc1ccc(C[C@H]2CCc3cnnn3COC[C@@H](C)NC2=O)cc1
→ 3 | 9 | -4.0
C/C=C/c1ccc2c(c1)O[C@H](CN(C)C(=O)C1CCC1)[C@H](C)CN([C@@H](C)CO)S2(=O)=O
→ 0 | 13 | 1.2
CCC(=O)N(C[C@H]1[C@H](c2ccccc2)[C@@H](CO)N1S(C)(=O)=O)C(C)C
→ 3 | 7 | -2.8
Cc1ccccc1-c1ccc(C2[C@@H]3CN(C(=O)C4CCC4)C[C@H]2N3)cc1 (some centres undefined)
→ 4&-5 | -1&-11 | 1.7&0.8
C[C@@H]1CCCCO[C@H](CN(C)C(=O)Nc2ccccc2)[C@H](C)CN([C@H](C)CO)C(=O)c2cc(NC(=O)C3CCCCC3)ccc2O1
→ -1 | -5 | 0.5
CCC(=O)N1CC(=O)N2[C@H](CO)[C@H](c3ccc(C#CC(C)C)cc3)[C@H]2C1
→ 3 | 3 | 2.4
CO[C@H]1CN(C)C(=O)c2cc(NC(C)=O)ccc2OC[C@@H](C)N(Cc2ccncc2)C[C@@H]1C
→ -1 | -1 | -0.8
C[C@H](CO)N1C[C@H](C)[C@H](CN(C)Cc2ccc(-c3ccccc3)cc2)Oc2c(NC(=O)C3CCCCC3)cccc2C1=O
→ -8 | -17 | -0.1
Cc1noc(C)c1NC(=O)Nc1cccc2c1O[C@@H](CN(C)S(=O)(=O)c1ccccc1)[C@@H](C)CN([C@H](C)CO)C2=O
→ 5 | 9 | -0.9
CCCNC(=O)N1[C@H](CNC(C)=O)[C@H](c2ccc(C3=CCCC3)cc2)[C@@H]1CO
→ -1 | 5 | -1.3
CC(=O)N(C)C[C@@H]1Oc2ncc(C#Cc3ccc(F)cc3)cc2C(=O)N([C@H](C)CO)C[C@@H]1C
→ 0 | 6 | 0.7
CC(C)NC(=O)N1[C@@H](CO)[C@@H](c2ccccc2)[C@@H]1CNC(=O)CN(C)C
→ 5 | 13 | -1.5
COc1ccc2c3c([nH]c2c1)[C@H](CO)N(Cc1ccccc1)CC31CN(C(=O)Cc2ccccc2)C1
→ -5 | -6 | 4.0
CNC[C@@H]1OCCCC[C@H](C)Oc2ccc(NS(=O)(=O)c3ccc(OC)cc3)cc2C(=O)N([C@H](C)CO)C[C@H]1C
→ 5 | 2 | 1.5
